Screening results as filed in PubChem.
Calb biofilm kill = mixture kills Candida albicans biofilm cells. inhibition, % at 7.6 µM. AID 1242. 120,000 tested, 0.02% active. C. albicans biofilm persisters + clotrimazole, fluorescence viability; primary screen in compound mixtures of four per well;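 active means inhibition above 30.3% in the primary screen of four-compound pools, then above 30% when the compound was retested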;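 further: compounds exposed to preformed 24 h biofilms for 48 h; the number belongs to the whole pool; some results filed as inactive read as strong as hits; inactives centre near 12; 0% = biofilm with clotrimazole alone and 100% = kill control; retested singly at about 60 µM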
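Assay system: C. albicans biofilms / Medium: RPMI/MOPS medium, pH 7.0 / Schedule: biofilm formation 24 h, compound exposure 48 h, 37 °C / Measured by: Alamar Blue fluorescence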
* marks the source's active call; other numbers are inactive results. The list is partial; count on the stated rates, not on these rows.

The opening 17 compounds, to show the layout:
SMILES	Calb biofilm kill
O=CNn1cnc2c(oc3nc(-c4ccccc4)cc(-c4ccco4)c32)c1=O	3
Cc1cccc(C(=O)N2CCC(=O)N(C(COCc3cccc(Cl)c3)Cc3ccccc3)CC2)c1 (stereo not drawn)	1
O=C(CSc1nnc(-c2ccncc2)o1)NC1CCCCC1	23
CCOC(=O)c1c(NC(=O)COc2cccc3c2CCN(CC)C3=O)sc2c1CCC2	12
Cc1nc2sc3c(c2c(=O)n1NC(=O)CCBr)CCCC3	10
Cc1ccc(Cc2cnc(NC(=O)C3=NCCN3)s2)cc1	9
CC(C)C[C@H](NC(=O)CCCn1nnc2ccccc2c1=O)C(=O)O	28
Cc1ccc(NC(=O)Nc2nnc(-c3ccccc3F)s2)cc1	6
Cc1nc2sc(C(=O)Nc3ccccc3Cc3ccccc3)c(C)c2c(=O)[nH]1	9
O=C(NNC(=S)Nc1ccccc1C(F)(F)F)c1cccnc1	12
COc1ccc(NC(=S)NCc2cccs2)cc1	9
COc1cc(C(=O)ON=C2C=C(C)C(=O)C(C)=C2)cc(OC)c1OC	12
O=C(C[n+]1cc(Br)cc(Br)c1)c1cccc([N+](=O)[O-])c1	7
CCOC(=O)N1CCC(NC(=O)CCCC(=O)O)CC1	19
Cc1cccc2nc(-c3cccnc3)c(Nc3ccccc3)n12	18
Cc1ccc([N+](=O)[O-])cc1NC(=O)c1ccc2c(c1)OCO2	15
CCOC(=O)N1CCN(C(=O)c2ccc(OCC)c(OCC)c2)CC1	6

All compounds of this part, repeating the preview:
SMILES	Calb biofilm kill
O=CNn1cnc2c(oc3nc(-c4ccccc4)cc(-c4ccco4)c32)c1=O	3
Cc1cccc(C(=O)N2CCC(=O)N(C(COCc3cccc(Cl)c3)Cc3ccccc3)CC2)c1 (stereo not drawn)	1
O=C(CSc1nnc(-c2ccncc2)o1)NC1CCCCC1	23
CCOC(=O)c1c(NC(=O)COc2cccc3c2CCN(CC)C3=O)sc2c1CCC2	12
Cc1nc2sc3c(c2c(=O)n1NC(=O)CCBr)CCCC3	10
Cc1ccc(Cc2cnc(NC(=O)C3=NCCN3)s2)cc1	9
CC(C)C[C@H](NC(=O)CCCn1nnc2ccccc2c1=O)C(=O)O	28
Cc1ccc(NC(=O)Nc2nnc(-c3ccccc3F)s2)cc1	6
Cc1nc2sc(C(=O)Nc3ccccc3Cc3ccccc3)c(C)c2c(=O)[nH]1	9
O=C(NNC(=S)Nc1ccccc1C(F)(F)F)c1cccnc1	12
COc1ccc(NC(=S)NCc2cccs2)cc1	9
COc1cc(C(=O)ON=C2C=C(C)C(=O)C(C)=C2)cc(OC)c1OC	12
O=C(C[n+]1cc(Br)cc(Br)c1)c1cccc([N+](=O)[O-])c1	7
CCOC(=O)N1CCC(NC(=O)CCCC(=O)O)CC1	19
Cc1cccc2nc(-c3cccnc3)c(Nc3ccccc3)n12	18
Cc1ccc([N+](=O)[O-])cc1NC(=O)c1ccc2c(c1)OCO2	15
CCOC(=O)N1CCN(C(=O)c2ccc(OCC)c(OCC)c2)CC1	6
Cc1ccc(CC(NC(=O)c2ccccc2)C(=O)NC(Cc2ccccc2)C(=O)O)cc1 (stereo not drawn)	16
O=C(NCCc1nc(-c2ccccc2)cs1)c1ccc(Br)cc1	7
COc1ccc([N+](=O)[O-])cc1NC(=O)c1ccc(C)o1	15
N#CCCN(CCC#N)C(=S)NC1CC2C=CC1C2 (stereo not drawn)	3
CN(C)S(=O)(=O)c1ccc(Cl)c(NC(=O)CN2CCCCCC2)c1	10
CN(Cc1ccc2nonc2c1)Cc1nc(Cc2cccc(F)c2)no1	-1
CN1CCN(S(=O)(=O)c2cc([N+](=O)[O-])ccc2N/N=C/c2ccc(Cl)cc2)CC1	14
COCCN1Cc2cccc(C(=O)NC(C)CCc3ccco3)c2C1=O (stereo not drawn)	1
O=C1OC(c2cccc([N+](=O)[O-])c2)C2(CCCC2)C(=O)C12CCCCC2 (stereo not drawn)	12
CCCCc1ccc(NC(=S)NCC2CCCO2)cc1 (stereo not drawn)	21
COc1ccc(C[C@@H]2CN3C(=NC[C@@H]3Cc3ccc(O)cc3)N2C[C@H](C)NC(=O)CCC2CCCCC2)cc1	3
CN1C(=O)C(CC(=O)Nc2ccccc2)S/C1=N/c1nccs1 (stereo not drawn)	17
CC(C)C(=O)Nc1ncc(Cc2ccc(Cl)cc2)s1	16
CNC(=O)c1ccc(NC(=O)c2cccc(C(F)(F)F)c2)cc1	4
Cc1nn(Cc2c(Cl)cccc2Cl)c(C)c1NC(=O)CCCn1nc(C)c([N+](=O)[O-])c1C	10
COc1ccc(N(CN2C(=O)c3ccccc3C2=O)C(=O)COc2ccc(Cl)cc2Cl)cc1	13
Cc1ccc(/C=N/NC(=O)Cn2cnc3ccccc32)cc1	29
COc1ccc(/C=C/c2nnc(NC(=O)COc3ccccc3)s2)cc1	16
Cc1cccc(C(=O)N2CCc3ccccc3C2)c1[N+](=O)[O-]	6
COc1ccc(NS(=O)(=O)c2ccc(Oc3c(C#N)cccc3C#N)cc2)cc1	21
O=C(O)c1ccc(-n2cccc2/C=N\NC(=O)c2cc3cc(Br)ccc3o2)cc1	15
COc1cccc(C(=O)NN2CC(O)=C(c3nc4ccccc4n3C)C2=N)c1	2
CCOC(=O)c1cnn2c(N)c(C#N)cnc12	-12
COc1cc2c(cc1NC(=O)CN(C)Cc1cccc(OC)c1OC)oc1ccccc12	14
COC(=O)c1ccccc1NS(=O)(=O)c1ccc(NC(C)=O)cc1	4
CN(Cc1cnccn1)C(=O)CC1C(=O)NCCN1Cc1c(F)cccc1Cl (stereo not drawn)	25
N#C/C(=C\c1cc2ccccc2nc1N1CCCCC1)C(N)=O	13
CCN(CC)S(=O)(=O)c1cc(NS(=O)(=O)c2cccc(C(=O)O)c2)ccc1C	0
Cc1ccc(-n2c(O)c(C=Nc3ccccc3-c3n[nH]c(=S)[nH]c3=O)c3ccccc3c2=O)cc1C	3
CCCCC(=O)NC(c1ccc([N+](=O)[O-])cc1)c1c(O)ccc2ccccc12 (stereo not drawn)	15
O=c1[nH]ccc2c([N+](=O)[O-])cccc12	-8
COc1cc(S(=O)(=O)NC2CCCCC2C)ccc1-n1cnnn1 (stereo not drawn)	17
Cc1cc(C(=O)N/N=C2\CC(=O)CC(C)(C)C2)c(C)n1-c1ccc(F)cc1	20
COc1ccc(/C=C/C(=O)C2(O)CCCCC2)cc1	24
O=C(Oc1ccccc1C(=O)N1CCOCC1)c1ccc(F)cc1	28
O=c1c2ccccc2c(=O)n(Cc2ccccc2)n1Cc1ccccc1	10
N#CCC(=O)N/N=C/c1ccc(OCc2ccccc2)cc1	3
COc1ccc(C(=O)NNC(=O)CCCCC(=O)NNC(=O)c2ccc(OC)cc2)cc1	7
O=C(Cn1c(=O)n(-c2ccccc2)c(=O)c2sccc21)NCc1ccccc1	14
Cc1ccc(OCc2n[nH]c(=S)n2-c2ccccc2)cc1	0
O=C1CN(C(=O)c2cccc(S(=O)(=O)N3CCCC3)c2)c2ccccc2N1	18
O=C(N/N=C/c1cccnc1)c1ccc(CN2c3cccc4cccc(c34)S2(=O)=O)cc1	9
CCOC(=O)C1CCN(c2c(C(=O)c3ccccc3)cnc3ccc(Cl)cc23)CC1	10
Other entries:
SMILES	Calb biofilm kill
O=C(O)c1cc(O)ccc1N=Nc1ccccc1	15
O=C(O)c1cccc(NC2=C(N3CCOCC3)C(=O)c3ccccc3C2=O)c1	22
CCOC(=O)COc1ccccc1/C=C\[N+](=O)[O-]	13
COc1ccc(-c2[nH]ncc2CN2CCCN(c3ccccc3)CC2)c(F)c1	25
COc1ccc(/C=N/Nc2nnc(C)n2N)cc1OC	25
Nc1cc(C(=O)O)ccc1N1CCCCC1	-5
CCOCCCNC(=S)NC1CC2CCC(C1)N2Cc1ccccc1 (stereo not drawn)	24
N=C1/C(=C\c2ccc(SCc3ccccc3)o2)C(=O)N=C2SC=NN12	9
OCCNCCCOc1cc(Cl)ccc1Cl	14
O=[N+]([O-])c1cccc(NC(=S)NCc2ccncc2)c1	-1
CCOc1ccccc1N1CC(C(=O)Nc2c(C)n(C)n(-c3ccccc3)c2=O)CC1=O (stereo not drawn)	11
C=CCN=C(C)C1=C(O)C(C)OC1=O (stereo not drawn)	5
O=C(N/N=C/c1ccc(Br)s1)c1cccs1	20
Cc1cccc(-n2nc(C)c3c(C(=O)O)cc(-c4cccs4)nc32)c1	-16
CN(C)C(=O)c1ccc(OCC(F)(F)F)nc1	15
Cn1c(=O)[nH]c(Nc2ccccc2)c([N+](=O)[O-])c1=O	8
O=C(CSc1nc2ccccc2n1Cc1ccccc1)N/N=C/c1ccccc1C(=O)O	21
CC(C)c1cccc(C(C)C)c1NC(=O)COc1nncc2ccccc12	10
COc1ccc(CN(Cc2ccc(C(=O)O)cc2)C(=S)Nc2ccc(C)cc2)cc1OC	-1
COCCCNC(=O)CC(NCCCOC)C(=O)O (stereo not drawn)	19
O=C(COc1ccc([N+](=O)[O-])cc1)NC(C(=O)O)C(O)c1cccc([N+](=O)[O-])c1 (stereo not drawn)	-4
CN(C)/N=C/c1ccc(Sc2ccc([N+](=O)[O-])cc2[N+](=O)[O-])o1	10
CCNC(=O)COc1ccc(/C=N/NC(=O)c2cccnc2)cc1OC	13
CNC(=O)NC(=O)COC(=O)CCc1nc(=O)c2ccccc2n1C	10
O=c1c2nnn(-c3ccc(Br)cc3)c2ncn1Cc1ccccn1	13
COc1ccc(NC(=S)NN(C)C(=S)Nc2ccc(OC)cc2)cc1	14
O=C(NCc1ccccc1)c1nc2ccccc2s1	17
Cc1cccc(OCC(=O)NCc2cc(C)nc3ccccc23)c1	8
O=C(c1cc(Cl)nc2ccccc12)N1CCc2ccccc2C1	19
CCOc1ccccc1NC(=O)COC(=O)CC(NC(N)=O)c1ccc(Cl)cc1 (stereo not drawn)	4
CCN1C(=O)CC(N2CCC(C(=O)N3CCCCCC3)CC2)C1=O (stereo not drawn)	11
O=C(O)CSc1nnc(-c2cccc(S(=O)(=O)N3CCCCC3)c2)o1	12
COc1cc(O)c2c(c1)COC2=O	7
C=CCNc1nc(=S)[nH]c2cc(OC)c(OC)cc12	7
CCN(CC1COc2ccccc2O1)C(=S)Nc1ccc(F)cc1 (stereo not drawn)	11
O=C(N/N=C/c1ccc([N+](=O)[O-])cc1)c1cc2ccccc2o1	10
COc1ccc(-c2cc(C(F)(F)F)nc(-n3ccnc3C)n2)cc1	-2
CC(Cc1cccs1)NC(=S)Nc1ccc(Cl)cc1 (stereo not drawn)	7
Cc1ccc(C2NC(=O)c3sc(=S)n(-c4ccccc4)c3N2)cc1 (stereo not drawn)	29
CCCCNC(=O)Cc1ccc(C)cc1	17
Cc1ccc(NC(=O)C(=O)NCc2ccc(/C=N/NC(=O)c3c(C)nc4ccccn34)o2)cc1	14
O=C(Cc1ccc(-n2c(=O)c3ccccc3n(Cc3ccc(F)cc3)c2=O)cc1)NCC1CCCO1 (stereo not drawn)	18
COCCN(C(=O)CSc1nncn1-c1ccccc1)c1c(N)n(Cc2ccccc2)c(=O)[nH]c1=O	14
O=C(NC1CCCC1)C(c1ccc(F)cc1)N(Cc1ccc(Cl)cc1)C(=O)CCl (stereo not drawn)	21
CCCN(CCC)C(=O)NC1CC(=O)N(c2ccc(OC)cc2)C1 (stereo not drawn)	13
Cc1ccc(-c2cccc(C(=O)NCCc3ccccc3)n2)c2ccccc12	6
CC1(C)CN2C(=O)c3ccccc3C2(C)S1 (stereo not drawn)	24
Cc1ccc(Nc2n[nH]c(C)c2[N+](=O)[O-])cc1C	20

A different layout for part of the listing above.
Cc1ccc(C2NC(=O)c3sc(=S)n(-c4ccccc4)c3N2)cc1 (stereo not drawn)
  Calb biofilm kill = 29
CCCCNC(=O)Cc1ccc(C)cc1
  Calb biofilm kill = 17

(further entries)
SMILES	Calb biofilm kill
O=C(COC(=O)c1cccc(S(=O)(=O)N2CCCC2)c1)Nc1ccccc1	14
COCCNC(=O)CSc1nc2cc3c(cc2c(=O)n1CCCC(=O)NCCc1ccc(OC)c(OC)c1)OCO3	15
COc1ccccc1-c1cc(=O)c2c(O)ccc([N+](=O)[O-])c2o1	15
COC(=O)[C@@]1(Cc2ccc(OC)cc2)[C@H]2c3cc(C(=O)N4CCCC4)n(CCn4cc([N+](=O)[O-])nc4C)c3C[C@H]2CN1C(=O)c1ccccc1	8
NC(=O)c1ccc[n+](CC(=O)c2ccc(F)cc2)c1	31
Clc1nc(N2CCOCC2)ncc1Br	17
N/C(=N\c1nc2ccccc2o1)NC(=O)c1ccc([N+](=O)[O-])cc1	16
CN1CCN(S(=O)(=O)c2ccc(NC(=S)NC(=O)C(C)(C)C)cc2)CC1	2
Cc1ccccc1Nc1nc(N)nc(COC(=O)C2CCCCC2)n1	18
O=C1OCC2=C1C(c1ccc(F)cc1)c1cc3c(cc1N2)OCCO3 (stereo not drawn)	15
O=C(/C=C/Nc1ccc(F)cc1F)c1cccs1	-2
Cc1cc(NC(=O)CSc2nc(N)c(NC(=O)c3ccco3)c(=O)[nH]2)no1	2
COc1ccc(/C=N/NC(=O)c2ccccc2OCc2ccccc2)c(OC)c1	24
CC(C)=CC(=O)Nc1ccc(OCc2ccccc2)cc1	12
COc1ccc(S(=O)(=O)NCCOc2ccccc2)cc1-n1cnnn1	25
Cn1cccc1C1C(C#N)=C(N)OC2=C1C(=O)CCC2 (stereo not drawn)	26
Cn1c(N)c(C(=O)COC(=O)c2cccc(S(=O)(=O)N3CCCCC3)c2)c(=O)n(C)c1=O	8
CCN(CC)c1ccc2cc(S(=O)(=O)c3ccc(Cl)cc3)c(=O)oc2c1	9
CCCCOC(=O)c1nc(Cl)c(Cl)c(N)c1Cl	17
Cc1cc(C(=O)NNS(=O)(=O)c2ccccc2C(F)(F)F)nn1C(C)(C)C	13
COc1ccccc1NC(=S)N(Cc1cccnc1)Cc1ccco1	9
Cc1cnnn1-c1ccc([N+](=O)[O-])cc1	20
O=C(COC(=O)/C=C/c1cccc([N+](=O)[O-])c1)NCc1ccc2c(c1)OCO2	19
Cc1cc(C)n2nc(N)c(N=Nc3ccccc3)c2n1	18
CCOc1ccc(Cl)cc1CSc1n[nH]c(C)n1	17
Cc1onc(-c2ccccc2)c1C(=O)N/N=C/c1cccs1	4
